Bioassay records: PubChem BioAssay, National Center for Advancing Translational Sciences (NCATS)
VACV Venus inh – qHTS for Stage-Specific Inhibitors of Vaccinia Orthopoxvirus: Venus Reporter Primary qHTS | Vaccinia virus Venus reporter expression, fluorescence | Potency, µM (top dose mostly 36.5 µM), for the others: at the highest dose activity change, negative = inhibition, usual class: inhibitors | actives 0.46% (n = 330,000); active means well fitted inhibition curve with a large enough effect; inconclusive means small, poorly fitted or top-dose-only effect; inactive means no such curve, though single readings can be large or run the other way; tested in A549 cells; further: nearly all actives have a fitted effect of over 30% in size; inactives centre near -10
VACV mCherry inh – qHTS for Stage-Specific Inhibitors of Vaccinia Orthopoxvirus: mCherry Reporter Primary qHTS; actives 0.63% (n = 310,000); Potency, µM (series often up to 36.5 µM), without a hit: top-dose activity change, negative = inhibition, actives largely listed as inhibitors; Vaccinia virus mCherry reporter infection, fluorescence; about a quarter of the inactives have no number; AID 720579, 2013; active = well fitted inhibition curve with a large enough effect; inconclusive = small, poorly fitted or top-dose-only effect; inactive = no such curve, though single readings can be large or run the other way; tested in A549 cells; further: nearly all actives have a fitted effect of over 35% in size; inactives centre near -10
Numbers without * were called inactive; i = inactive; ? = inconclusive; . = no result given. On the % scale 0 is the no-effect control and ±100 the full control effect; potency means the concentration at half of the fitted maximal effect.

canonical_smiles	VACV Venus inh	VACV mCherry inh
CCOC(=O)NC(=O)CSc1nnnn1-c1ccccc1	-19%	i
COc1ccc(N(CC(=O)NCc2cccnc2)S(=O)(=O)c2ccccc2[N+](=O)[O-])c(OC)c1	-1%	3%
Cc1ccc(S(=O)(=O)CCC(=O)OCC(=O)c2cc(C)ccc2C)cc1	-7%	-8%
CNNC(=S)Nc1cccc(SC)c1	-19%	-16%
COc1ccccc1CCC(=O)Nc1cccc(S(=O)(=O)N2CCCC2)c1	-13%	i
Cc1ccc(CN2C(=O)C(O)(c3c(C)[nH]c4ccccc34)c3ccccc32)cc1 (configuration not stated)	-5%	-8%
S=C1NCCc2ccc(Cl)cc2C1c1ccccc1 (configuration not stated)	-23%	?
O=C1C=CC(=O)c2c(O)c(Cl)c(Cl)c(O)c21	0%	-7%
COC(=O)[C@]12CCCCC=C1N(Cc1ccc(Cl)cc1Cl)C(=O)[C@H](CC(=O)N1CCN(C(=O)C3CC3)CC1)C2	-18%	22%
O=C(Nc1nnc(S(=O)(=O)N2CCCCC2)s1)c1cccc(Br)c1	-29%	?
COc1ccc(C2(CNC(=O)C(=O)Nc3cccc(C(F)(F)F)c3)CCCC2)cc1OC	-9%	-13%
CCc1ccc(N=C2NC(=O)CC(C(=O)Nc3ccc(OC)cc3)S2)cc1 (configuration not stated)	-2%	0%
Cc1coc2c(C)c3oc(=O)c(CCC(=O)NCCCN4CCCC4=O)c(C)c3cc12	2%	-9%
CC(Nc1nc(-c2ccccc2O)nc2ccccc12)c1ccccc1 (configuration not stated)	-28%	-1%
O=C1N2CCSC2=NC1(NS(=O)(=O)c1ccccc1)C(F)(F)F (configuration not stated)	-10%	.
CC1(c2nnnn2C2CCCCC2)CCC(=O)N1Cc1ccc2c(c1)OCO2 (configuration not stated)	-6%	i
COc1ccc(/C=C/C(=O)c2c(O)n(CCC3=CCCCC3)c(=O)[nH]c2=O)cc1	-6%	-10%
CCOC(=O)Cn1nc(C(F)F)c(Br)c1C	-5%	-8%
Cc1ccc(NC(=O)CSc2nnc(-c3cccnc3)o2)c(C)c1	-12%	i
O=c1nc(-c2ccccc2)c2ccccc2[nH]1	-10%	.
COc1cc(NC(=O)c2cccc(Cl)c2)c(OC)cc1NC(=O)CN1CCCCC1	-26%	?
CCN(CC)S(=O)(=O)c1cc(F)ccc1OC	-11%	-11%
COc1cc(/C=N/n2nnnc2N)ccc1OCc1c(C)no[n+]1[O-]	?	?
O=S(=O)(NCCc1nnc2ccc(SCc3c(F)cccc3Cl)nn12)c1ccccc1	-19%	-23%
COc1ccc(-c2cc(N3C(=O)Nc4ccccc4N3O)n[nH]2)cc1	-11%	i
COc1ccc(/C=N/NC(=O)c2cccnc2)cc1CN1CCCc2ccccc21	-3%	-4%
C[C@@H]1CN([C@H](C)CO)C(=O)CCCn2nncc2CO[C@H]1CN(C)Cc1cccc(O)c1	-7%	-1%
C=C(C)C1Cc2c(ccc(C(=O)O)c2O)O1 (configuration not stated)	14%	6%
O=C(Nc1nc2c(F)cccc2s1)c1ccc(S(=O)(=O)N2CCCc3ccccc32)cc1	-1%	-3%
O=C(COC(=O)Cc1c(F)cccc1Cl)NC(=O)c1ccccc1	-2%	-14%
COc1ccc(-c2cc3nc(NCCNC(C)=O)n(C)c(=O)c3s2)c(C)c1	-3%	19%
C/C(=N\NC(=O)CC1N=C(Cc2ccccc2)NNC1=O)c1ccc(C)cc1 (configuration not stated)	?	-18%
COCCN1C(=O)c2[nH]nc(-c3c(C)cc(C)cc3O)c2C1c1cccc(O)c1 (configuration not stated)	-30%	-26%
CC(=O)C1=C(C)NC(=O)CC1c1ccc(F)cc1 (configuration not stated)	-4%	i
COC(=O)c1sccc1NC(=O)Nc1ccc(OC)cc1	-5%	i
CN1CCC(N2CCN(C3CN(Cc4cn(Cc5cccc(C(F)(F)F)c5)nn4)S(=O)(=O)C3)CC2)CC1 (configuration not stated)	1%	0%
COc1cc(CCC(=O)NCc2ccc(F)cc2)cc(OC)c1OC	-9%	-12%
Cn1ccnc1SCc1cn2ccccc2n1	-11%	.
CS(=O)(=O)Nc1ccccc1C(=O)OCC(=O)NCc1cccs1	-3%	-19%
Cc1ccccc1Nc1c(-c2ccccc2)nc2ncccn12	1%	?
COCCN1C[C@@H](CO)O[C@@H](n2cnc3c(N4CCOCC4)ncnc32)C1	-1%	-5%
CCOc1ccc(CCNC(c2cccc(Cl)c2)c2nnc(-c3ccccc3)o2)cc1OCC (configuration not stated)	-9%	-15%
CCN(CC)c1ccc(/C=N/NC(=O)c2ccc3nc[nH]c3c2)c(O)c1	?	11µM*
COc1ccc(NCC(=O)N/N=C/C=C/c2ccccc2[N+](=O)[O-])cc1	2%	i
Cn1c2ccccc2c(=O)c2cc(C#Cc3ccc(N)cc3)ccc21	-24%	?
COc1ccc(-c2ccc(-c3nc4ccc(C)cn4c3NC3CCCCC3)cc2OC)cc1	?	-25%
Cc1cc(C)cc(NC(=S)N2CC(C)OC(C)C2)c1 (configuration not stated)	-14%	?
COc1ccc(OCCSc2nc(N)cc(N)n2)cc1	28%	23%
COc1cccc(C(=O)N2CCN(C3CCCCC3)CC2)c1	-8%	-2%
CCOC(=O)C(Cc1ccccc1)NC(=O)CCc1c(C)nc2nc(C)nn2c1C (configuration not stated)	2%	9%

Next part
canonical_smiles	VACV Venus inh	VACV mCherry inh
Cc1cc2ccccc2nc1Br	-8%	-20%
Cc1cccc(NC(=O)N2C[C@H]3C[C@@H](C2)c2cccc(=O)n2C3)c1	-7%	2%
Nc1c2c(nc3ccccc13)CCN(Cc1ccccc1)C2	-21%	-9%
COCc1cc(C)nc2sc(C(=O)N3CCCCC3)c(N)c12	4%	-8%
COc1cc(OC)cc(C(=O)NC2CCN(Cc3nnnn3Cc3ccc(F)cc3)CC2)c1	-28%	-6%
COc1ccc(N2CCN(Cc3nc(-c4ccc(C)cc4)no3)CC2)cc1	-2%	-17%
CC(=O)NN=C1CCC(c2ccccc2)CC1 (configuration not stated)	-19%	-8%
CC1CCCC(=NNc2ccc3ccccc3n2)C1 (configuration not stated)	-6%	-1%
Cc1ccccc1CN1CCN(C/C=C/c2ccccc2)CC1	-10%	0%
Brc1ccc(-c2csc(/N=C/N3CCCC3)n2)cc1	-27%	-15%
O=C(COc1ncnc2ccccc12)Nc1cc([N+](=O)[O-])ccc1Cl	1%	-3%
O=S(=O)(Nc1ccc(-c2ccc(N3CCCC3)nn2)cc1)c1ccc(Br)cc1	-22%	i
Cc1ccc(CN2CCN(Cc3ccccc3C(F)(F)F)CC2)cc1	-4%	-14%
Cc1cccc(C)c1OCc1nc2ccccc2c(=O)n1/N=C/c1ccc(OCC(=O)O)cc1	-14%	-19%
Nc1nc(N)c(N=Nc2ccc(S(N)(=O)=O)cc2)c(=O)[nH]1	-6%	i
O=C(NC(=S)Nc1ccc(N2CCCCC2)cc1)c1ccco1	-16%	-25%
COc1cccc(CNC(=O)c2ccccc2-c2ccccc2)c1	-6%	-4%
CCCS(=O)(=O)NC(=O)C1(C)CCN(C(=O)c2cncc(Br)c2)C1 (configuration not stated)	-7%	4%
CCOc1cc(CNC(=O)c2cc(-c3ccccc3)n[nH]2)cc(OCC)c1OCC	-14%	-3%
CCC(c1nnnn1C(C)(C)C)N1CCN(C2CCCC2)CC1 (configuration not stated)	-17%	i
Cc1ccc2c(CC(=O)Nc3cc(C(F)(F)F)ccc3Cl)coc2c1C	-16%	-17%
O=C(COC(=O)/C=C/c1ccc(S(=O)(=O)N2CCOCC2)cc1)Nc1ccc(F)c(F)c1F	-8%	i
C=C1CCC[C@]2(C)C[C@H]3OC(=O)C(CNCCN(CC)CC)[C@H]3CC12 (some centres not stated)	3.2µM*	4µM*
COc1ccc(CCNC(=O)/C(=C/c2cccnc2)NC(=O)c2ccccc2)cc1	-21%	-7%
Cc1nc(Nc2ccc3c(c2)OCCO3)c2oc3ccccc3c2n1	-14%	-15%

Record cards, from the list above:
Brc1ccc(-c2csc(/N=C/N3CCCC3)n2)cc1 in the list: VACV Venus inh = -27%; VACV mCherry inh = -15%
O=C(COc1ncnc2ccccc12)Nc1cc([N+](=O)[O-])ccc1Cl in the list: VACV Venus inh = 1%; VACV mCherry inh = -3%

(list continues)
canonical_smiles	VACV Venus inh	VACV mCherry inh
CNC(C)c1ccc(S(N)(=O)=O)cc1 (configuration not stated)	-10%	i
O=c1[nH]c2ccc(NS(=O)(=O)c3ccc([N+](=O)[O-])cc3)cc2[nH]1	-7%	-3%
Cc1ccc(S(=O)(=O)N(CC(=O)NCCc2ccc(Cl)cc2)c2ccccc2C)cc1	-25%	?
CCOC(=O)c1ccccc1NC(=O)c1c(O)[nH]c(=O)[nH]c1=O	4%	i
CCc1nnc(NC(=O)c2cc(-c3ccccn3)nc3ccc(Br)cc23)s1	-10%	-13%
CCCc1ccc(C(O)c2ncc(-c3ccccc3)[nH]2)cc1 (configuration not stated)	-11%	i
Cc1nn(CC(C)C)c2sc(C(=O)NC3CC(C)(C)NC(C)(C)C3)cc12	-22%	-26%
Cc1ccc(CNc2nc3ccc(C)cc3n3nnnc23)cc1	1%	-5%
O=C(Nc1ccc2c(c1)OCO2)c1cc(-c2cccc(Cl)c2)on1	-4%	-12%
COc1ccc(OCC(O)CN2CCC(CN3C(=O)c4cccc5cccc(c45)C3=O)CC2)cc1 (configuration not stated)	-23%	?
COc1ccc(C(=O)NC(=S)Nc2ccc(S(N)(=O)=O)cc2)cc1	13%	i
Cc1c(Cl)cccc1Nc1nc(N)nc(CSCCO)n1	18%	16%
Fc1ccc(Cn2nnnc2C(c2ccc(F)cc2)N2CC=C(c3ccc(F)cc3)CC2)cc1 (configuration not stated)	6%	-11%
CCCCN(C)C1CCN(C(=S)Nc2ccc(OCC)cc2)CC1	3%	?
COCc1c(Br)c(C)nc2sc3c(=O)n(-c4cccc(Br)c4)nnc3c12	-14%	-15%
O=C(Nc1ccc(C(=O)NN2C(=O)c3ccccc3C2=O)cc1)c1ccccc1	-18%	?
COC(=O)CSc1nnc2n(C3CCCCC3)c(=O)c3c4c(sc3n12)CCCC4	-9%	i
Cc1ccc(NCc2n[nH]c(=S)n2Cc2ccccc2)cc1Cl	?	-30%
CCn1c(COc2ccccc2Cl)nnc1SCC(=O)Nc1ncccc1C	-8%	-4%
C[C@@H]1CCCCO[C@H](CN(C)S(=O)(=O)c2cn(C)cn2)[C@H](C)CN([C@@H](C)CO)C(=O)c2cc(NC(=O)c3ccccc3)ccc2O1	-6%	-19%
CCCC(=O)Nc1nnc(SCC(=O)Nc2ccc3c(c2)OCO3)s1	-9%	-6%
Cc1ccc(NC(=O)Cn2nc(-c3ccc(Cl)cc3)c3ccccc3c2=O)cc1	-11%	-16%
Cc1cccc(-c2nnc(-c3ccccc3)o2)c1	18%	.
CCC(=O)OC1CCC2C3CCC4=CC(=O)CC[C@@]4(C)C3CC[C@]12C (some centres not stated)	0%	-11%
OC(c1cccc(Cl)c1)c1nc(/C=C/c2ccc(C(F)(F)F)cc2)cs1 (configuration not stated)	1%	-3%

Compounds above that have a thiophene ring, fused or not:
canonical_smiles	VACV Venus inh	VACV mCherry inh
COc1ccc(-c2cc3nc(NCCNC(C)=O)n(C)c(=O)c3s2)c(C)c1	-3%	19%
COC(=O)c1sccc1NC(=O)Nc1ccc(OC)cc1	-5%	i
CS(=O)(=O)Nc1ccccc1C(=O)OCC(=O)NCc1cccs1	-3%	-19%
COCc1cc(C)nc2sc(C(=O)N3CCCCC3)c(N)c12	4%	-8%
Cc1nn(CC(C)C)c2sc(C(=O)NC3CC(C)(C)NC(C)(C)C3)cc12	-22%	-26%
COCc1c(Br)c(C)nc2sc3c(=O)n(-c4cccc(Br)c4)nnc3c12	-14%	-15%
COC(=O)CSc1nnc2n(C3CCCCC3)c(=O)c3c4c(sc3n12)CCCC4	-9%	i

(listing goes on)
canonical_smiles	VACV Venus inh	VACV mCherry inh
N#Cc1ccc(-c2ccc(OCC(O)CN3CCCCC3)cc2)cc1 (configuration not stated)	-4%	1%
O=C(NC1CCCC1)C(c1ccncc1)N(Cc1ccccc1)C(=O)c1ccc(-c2ccccc2)[nH]1 (configuration not stated)	-30%	-25%
CCCCNC(=O)Cn1c(=O)c2c(ncn2CCC(C)C)n(Cc2ccccc2)c1=O	-9%	-8%
CCCOC(=O)C1=C(C)OC23OC(N)=C(C#N)C12C(=O)c1ccccc13 (configuration not stated)	-11%	-29%
CC(C)C(Nc1ccc(C(F)(F)F)cc1[N+](=O)[O-])C(=O)O (configuration not stated)	-1%	?
